Source: PubChem
Measles inh – inhibitors of measles virus growth in infected cells. infected Vero cells, GFP fluorescence, 64 h; hits give low values. actives 0.1% (n = 33,000). z-score (concentration not given with the values);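 active = z-score under -3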;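 also: score is relative to mean and SD of the compound wells of a plate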
The depositor's hits bear a star. The list is partial; rates above refer to the full screens.

canonical_smiles | Measles inh
Cc1ccc(N2CCN(S(=O)(=O)c3ccccc3)CC2)cc1 | -0.18
CCN(Cc1ccccc1)S(=O)(=O)c1ccc(C(=O)Nc2nnc(-c3cccs3)o2)cc1 | -0.58
CC1=C(C(=O)Nc2ccccc2F)C(c2cccs2)C2=C(CCCC2=O)N1 (centres undefined) | -0.18
Cc1ccc(CCN2CC(C(=O)NCC3CCCO3)CC2=O)cc1 (centres undefined) | 0.66
COc1cccc(C(=O)N2CC(=O)Nc3ccc(F)cc3C2c2ccc(F)cc2)c1OC (centres undefined) | 0.64
COc1ccc(NC(=O)C2=C(C)NC3=C(C(=O)CC(c4ccc(OC)c(OC)c4)C3)C2c2cccc(O)c2)cc1 (centres undefined) | 1.4
COc1cc(OC)cc(C(=O)Oc2ccc3c(=O)c(Oc4ccccc4Cl)coc3c2)c1 | -0.38
O=C(NCc1ccccc1)c1ccc(N2CCN(c3ccccn3)CC2)c([N+](=O)[O-])c1 | -0.38
CCN(CC)CCn1c(=N)n(CC(=O)OC)c2ccccc21 | 1.2
CC1=C(C(=O)Nc2ccccc2)C(c2ccccc2)n2ncnc2N1 (centres undefined) | 0.83
O=C(Nc1cccc2nsnc12)c1ccc([N+](=O)[O-])cc1 | 0.18
CC1CC(=O)Nc2ccc(N)cc2N1C=O (centres undefined) | -0.71
O=C(O)CCN1C(=O)C(=O)/C(=C(/O)c2ccccc2)C1c1ccccc1F (centres undefined) | 0.38
Cc1nc2sc3c(c2c(=O)[nH]1)CCC3 | 0.5
Clc1ccccc1CN1CCN(Cc2ccncc2)CC1 | -1.7
Cc1cccc(CN2C(=O)c3ccccc3Sc3ccc(C(=O)NCC4CCCO4)cc32)c1 (centres undefined) | 0.5
O=c1oc2cc3occ(-c4ccc(Br)cc4)c3cc2c2c1CCC2 | -0.25
CC(NC(=O)c1cc(=O)[nH]c2ccc(S(=O)(=O)N3CCCCC3C)cc12)c1ccccc1 (centres undefined) | -1.6
C=CCn1c(=N)n(CC(O)c2ccc(C)cc2)c2ccccc21 (centres undefined) | -0.52
COc1ccc(C2C3=C(CCCC3=O)Nc3ncnn32)cc1Br (centres undefined) | -0.49
O=C(Nc1ccc2ccccc2c1)c1ncn[nH]1 | -0.56
CSc1ccccc1NC(=O)CCS(=O)(=O)c1nc(-c2ccc3c(c2)OCO3)cc(C(F)(F)F)n1 | 1.6
CCOC(=O)c1cccc(N2C(=O)C3C4c5ccccc5C(c5ccccc54)C3C2=O)c1 (centres undefined) | 0.25
O=C(C1CC1)N1CCc2cc(Br)cc(S(=O)(=O)NCc3ccc(Cl)cc3)c21 | -0.59
CCOC(=O)c1c(NC(=O)c2nn3c(c2Br)NC(c2ccc(OC)cc2)CC3C(F)(F)F)sc2c1CCC2 (centres undefined) | -0.73
Cc1cc2nc(Nc3nc(C)c(Cc4ccccc4)c(=O)[nH]3)nc(C)c2cc1C | -0.05
O=C(Cn1ccc2ccccc2c1=O)N1CCN(c2cccc(Cl)c2)CC1 | 2.2
CC1CC2(CCCCC2)Nc2ccccc21 (centres undefined) | -0.51
CSc1cccc(NS(=O)(=O)c2ccc3[nH]cc(C(=O)NCCc4ccc(C)cc4)c(=O)c3c2)c1 | 0.57
COc1ccc(/C(O)=C2\C(=O)C(=O)N(CCc3ccccc3)C2c2ccc(OC)cc2)cc1 (centres undefined) | -0.01

5 records drawn at random from the list so far:
canonical_smiles | Measles inh
O=C(NCc1ccccc1)c1ccc(N2CCN(c3ccccn3)CC2)c([N+](=O)[O-])c1 | -0.38
Cc1ccc(CCN2CC(C(=O)NCC3CCCO3)CC2=O)cc1 (centres undefined) | 0.66
O=C(C1CC1)N1CCc2cc(Br)cc(S(=O)(=O)NCc3ccc(Cl)cc3)c21 | -0.59
O=c1oc2cc3occ(-c4ccc(Br)cc4)c3cc2c2c1CCC2 | -0.25
Cc1cc2nc(Nc3nc(C)c(Cc4ccccc4)c(=O)[nH]3)nc(C)c2cc1C | -0.05

Grouped by structure: the entries above with a CF3 group (2)
canonical_smiles | Measles inh
CSc1ccccc1NC(=O)CCS(=O)(=O)c1nc(-c2ccc3c(c2)OCO3)cc(C(F)(F)F)n1 | 1.6
CCOC(=O)c1c(NC(=O)c2nn3c(c2Br)NC(c2ccc(OC)cc2)CC3C(F)(F)F)sc2c1CCC2 (centres undefined) | -0.73

Following part
canonical_smiles | Measles inh
C=CCOc1ccc(C2C3=C(CCCC3=O)N(C)C3=C2C(=O)CCC3)cc1 | 0.13
COc1ccc(-c2noc(-c3ccco3)n2)cc1 | 1.6
CC(=O)c1cccc(NC(=O)c2[nH]c(C)c(C(C)=O)c2C)c1 | -0.66
CNc1nnc(-c2cc3ccccc3oc2=O)s1 | -0.13
COc1ccc(/C(O)=C2\C(=O)C(=O)N(c3cccc(C(=O)O)c3)C2c2ccccc2)cc1 (centres undefined) | -0.37
O=C(CSC1=Nc2ccccc2C2=NC(Cc3ccccc3)C(=O)N12)c1ccccc1 (centres undefined) | -0.25
COC(=O)CNC(=O)c1nn(-c2ccccc2OC)c(=O)c2ccccc12 | 1.4
O=C(OCCN1C(=O)c2ccccc2C1=O)c1ccc([N+](=O)[O-])cc1 | -0.25
O=C(NCCc1ccccc1)c1ccc(N2CC3CC(C2)c2cccc(=O)n2C3)c(NS(=O)(=O)c2ccc3c(c2)OCCO3)c1 (centres undefined) | -1.6
Cc1nc2c3ccccc3nc(SCC(=O)c3ccc(Cl)cc3)n2n1 | 0.71
O=[N+]([O-])c1cccc(C=Nc2ccc3nc(-c4ccc(Cl)cc4)oc3c2)c1O | -0.56
Cc1[nH][nH]c(=O)c1C(c1ccc(OC(=O)c2ccc(F)cc2)cc1)c1c(C)[nH][nH]c1=O | -0.41
CC1CCCCN1C(=O)c1ccc(Sc2ccccc2Cl)c([N+](=O)[O-])c1 (centres undefined) | -0.07
CC(=O)Nc1cc(C(=O)NCCC(C)C)ccc1Sc1ccc(C)cc1 | -1.5
COC(=O)Cn1nc(C)c2ccccc2c1=O | -0.53
Cc1ccc(C(C)C)cc1S(=O)(=O)NCc1ccc2c(c1)OCO2 | -0.52
CC(C)(C)NC(=O)CCn1nc(-c2ccc(Cl)cc2)ccc1=O | -0.24
C=CCn1c2ccccc2c2nnc(SCC(=O)NC(C)(C)C)nc21 | -0.53
CC1=C(C(=O)OCCc2ccccc2)C(c2ccccc2Cl)NC(=O)N1 (centres undefined) | -0.54
COc1cc(C2C(C(=O)OC3CCCCC3)=C(C)NC3=C2C(=O)CCC3)cc(Cl)c1O (centres undefined) | -1.3
CN(Cc1ccccc1)c1ncnc2ccc(Br)cc12 | -2.4
C=CCn1c(=N)n(CC(=O)OC)c2ccccc21 | 0.85
C=CCNC(=O)c1noc2c1CCc1cc(OC)ccc1-2 | -0.83
COc1ccc(S(=O)(=O)N2CCC(CN3C(=O)c4cccc5cccc(c45)C3=O)CC2)cc1 | 1.9
COc1ccccc1CNC(=O)c1ccc(OC(C)=O)cc1 | -2.8
CCCCC(NS(=O)(=O)c1ccccc1)C(=O)O (centres undefined) | 0.32
CCOc1cc(C2Nc3ccc4ccccc4c3C3=C2C(=O)CC(C)(C)C3)cc(Cl)c1O (centres undefined) | -0.41
CCOc1ccc2nc(SCC(=O)Nc3cc(C)on3)sc2c1 | -0.73
CC(C)CCn1c(SCC(=O)c2ccccc2)nc2c1c(=O)[nH]c(=O)n2C | -0.16
CCOC(=O)c1c(NC(=O)c2cc(OC)c(OC)c(OC)c2)sc2c1CCC2 | 1.2

Another view of three compounds above:
Measles inh,SMILES
-0.24,CC(C)(C)NC(=O)CCn1nc(-c2ccc(Cl)cc2)ccc1=O
-0.53,C=CCn1c2ccccc2c2nnc(SCC(=O)NC(C)(C)C)nc21
-0.54,CC1=C(C(=O)OCCc2ccccc2)C(c2ccccc2Cl)NC(=O)N1 (centres undefined)

Remaining list, next part.
canonical_smiles | Measles inh
CCOc1ccc(NC(=O)CN(C)S(=O)(=O)c2ccc(Br)s2)cc1 | -0.83
COCc1nnc(NC(=O)c2cc(-c3ccccc3)nc3ccccc23)s1 | 1.7
COC(=O)c1nc2n(n1)C(c1ccc(C)cc1)C(C(=O)OC1CCCCC1)=C(C)N2 (centres undefined) | 1.6
CCC(C)Cn1c(C=Cc2ccccc2)nc2ccccc21 (centres undefined) | -0.14
O=C(Nc1cccc(F)c1)c1cnc2n(c1=O)CCS2 | -0.77
CCCCNC(=O)c1cc2ccccc2s1 | -0.4
Cc1ccc(S(=O)(=O)C2(C(=O)N(C)Cc3ccccc3)CC2)cc1 | 0.74
Cc1nn(CCCC(=O)N2CCCc3ccccc32)c(C)c1[N+](=O)[O-] | 0.31
COc1cc(OC)c(OC)cc1C=Cc1nc2cc3ccccc3cc2c(=O)n1-c1ccc(F)cc1 | 0.08
CCC1C(=O)CN1S(=O)(=O)c1ccc(C)cc1 (centres undefined) | -0.24
COc1ccc(C2C(C(=O)Nc3ccc(OC)cc3OC)CCC(=O)N2c2ccc(OC)cc2)cc1 (centres undefined) | -0.43
CC(=O)NCCn1c(SCc2cccc([N+](=O)[O-])c2)nc2ccccc2c1=O | 0.31
CCCOc1ccc2oc(=O)c3c(c2c1)CCCN3C(=O)CN(CC)c1cccc(C)c1 | 0.14
C=CCn1c(=O)[nH]c2cc(C(=O)N3CCN(c4ccc(C(C)=O)cc4)CC3)ccc2c1=O | 0.81
CCOc1ccc(N=c2scc(-c3ccc(Cl)s3)n2CCc2ccc(S(N)(=O)=O)cc2)cc1 | -0.59
O=C(O)c1cccc(NC(=O)C(c2ccc(Cl)cc2)c2ccc(Cl)cc2)c1 | 0.43
COc1cccc(NS(=O)(=O)c2ccc3[nH]cc(C(=O)N4CCCCCC4)c(=O)c3c2)c1 | 1.3
O=C(CCS(=O)(=O)Cc1cccc(Cl)c1)NCCC1=CCCCC1 | 0.88
Cc1ccc(S(=O)(=O)Nc2cc(C(=O)N3CCN(C)CC3)ccc2N2CCCCC2)cc1 | -2
COc1cccc(C2CC(c3cccs3)=NN2C(=O)CSc2nc3ccccc3o2)c1OC (centres undefined) | 0.69
Cc1c(Cl)cccc1NC(=O)c1sc2ncn(CC(=O)N3CCOCC3)c(=O)c2c1C | 0.49
O=C(Nc1ccc(O)c(-c2nc3ccccc3o2)c1)c1ccccc1F | 0.68
O=[N+]([O-])c1cccc(CSc2nc3ccccc3n2S(=O)(=O)c2ccccc2)c1 | 1.4
COc1ccc(C2C(C(=O)OC(C)C)=C(C)NC3=C2C(=O)CC(c2ccccc2)C3)cc1OC (centres undefined) | -0.22
O=C(c1ccccc1)c1ccc(CSc2ncn[nH]2)cc1 | 0.33
CCCOC(=O)C1=C(C)NC2=C(C(=O)C(C(=O)OC)C(C)C2)C1c1ccccc1Br (centres undefined) | -1.3
N#Cc1c(N=Cc2cccn2-c2ccc(S(N)(=O)=O)cc2)sc2c1CCCC2 | 0.53
Cc1ccc(-c2nc3ccc(Br)cn3c2Nc2ccc3c(c2)OCO3)o1 | 0.42
CSc1ccc(C2Nc3ccc4ncccc4c3C3=C2C(=O)CCC3)cc1 (centres undefined) | -0.61
CCOC(=O)c1ccc2c(c1)sc(=NC(=O)c1ccc(S(=O)(=O)N3CCCCC3)cc1)n2C | -0.49
Cc1ccc(N=C2c3ccccc3C(=O)C2[N+](=O)[O-])cc1C (centres undefined) | -0.12
CCc1ccccc1NC(=O)c1c(NC(=O)C(C)(C)C)sc2c1CCCC2 | -0.17
Cc1nc(N2CCCC2)c2c3c(sc2n1)CCCC3 | -0.45
Cc1cc(C)nc(SC2CCCCC2NS(=O)(=O)c2ccc(Cl)cc2)n1 (centres undefined) | 0.03
Cc1nccn1-c1c2c(c(C#N)c3nc4ccccc4n13)CCC2 | 0.29
CN(c1ccc(Br)cc1)S(=O)(=O)c1ccc2[nH]cc(C(=O)NCc3ccccn3)c(=O)c2c1 | -0.26
CCOc1ccccc1C=Nc1sc2c(c1C(N)=O)CCCC2 | 0.64
CCN(CCNC(=O)Cn1nc(-c2ccc(Cl)cc2)ccc1=O)c1ccccc1 | -1.4
Cc1ccc(-c2nc(S(=O)(=O)c3ccccc3)c(SCC(=O)NC3CCCCC3)o2)cc1 | -0.69
COC(=O)c1ccc(NC(=O)CNc2cc(Cl)ccc2OC)cc1 | -0.07
O=C(Nc1ccc(N2CCOCC2)c(Cl)c1)c1ccc(-c2cccc([N+](=O)[O-])c2)o1 | -1.1
COc1ccc(CN2C(=O)C3C(c4ccc(C)cc4)OC4(C(=O)c5ccccc5C4=O)C3C2=O)cc1 (centres undefined) | 0.98
CCSc1nnc2c(n1)OC(c1ccc(N(CC)CC)cc1OC)Nc1ccccc1-2 (centres undefined) | -1.8
CN1CCN(C2CCN(C(=O)CCC3CCCC3)CC2)CC1 | -0.49
COc1ccc(CNC(=O)CCSCc2ccccc2Cl)cc1 | 0.18
Cc1cccc(C)c1NC(=O)Cn1c(=O)n(Cc2ccccc2)c(=O)c2c3c(sc21)CCC3 | -0.47
O=C(CCNS(=O)(=O)c1cccs1)N1CCN(c2ccccc2F)CC1 | -0.54
CC(C)c1ccc(NC(=O)c2ccc([N+](=O)[O-])cc2Cl)cc1 | -0.65
Cc1cc(N2CCN(c3ccccc3)CC2)n2c(nc3ccccc32)c1C#N | -1.2
CC(Oc1ccc(F)cc1)C(=O)NCc1ccc2c(c1)OCO2 (centres undefined) | -0.01
CCc1ccc2nc(N3CCC(C(=O)NCCC(C)C)CC3)sc2c1 | 0.49
O=C(CCCn1c(=O)[nH]c2ccccc2c1=O)N1CCN(c2ccc([N+](=O)[O-])cc2)CC1 | -0.06
O=S(=O)(Nc1ccccc1Cl)c1ccccc1C(F)(F)F | 0.21
CCc1ccc(NC(=O)C2CCN(S(=O)(=O)c3ccc(Br)s3)CC2)cc1 | -0.95
Cc1ccc(N2C(=O)C3C4c5ccccc5C(C(=O)O)(c5ccccc54)C3C2=O)cc1Cl (centres undefined) | 0.69
CC(=O)Nc1cc(C(=O)N2CCN(c3ccc(F)cc3)CC2)ccc1Sc1ccc(C)cc1 | 0.79
